Anaer choline gr: choline-fed anaerobic bacterial growth inhibition; Gram-negative bacterium anaerobic choline minimal medium, absorbance growth; active compounds read low; many inactives read as strong as hits in the columns shown; calls only; actives 0.2% (n = 55,000);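 active = growth z-score on choline under -2 at 7 or 20 h with little or no fall on glycerol, limits in tiers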;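 note: stock transfer was 300 nL into about 50 µL; the organism is E. coli; final concentration not given here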
Anaer choline gr early: also measured in Anaer choline gr; calls as there; z-score; measured here: choline growth z-score, timepoint 1;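 score of optical density at 7 h as mean of two plates; lower means less growth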
The depositor's hits bear a star; i = inactive; & = joins results of further samples. An excerpt (hit frequency here may not be typical).

SMILES | Anaer choline gr | Anaer choline gr early
Cc1ccc(-n2c(-c3ccc(Cl)cc3)cn3c4c(=O)n(C)c(=O)n(C)c4nc23)cc1C | i | -0.27
COCCNC(=O)c1ccc2c(c1)nc1n2CCCC1 | i | -0.6
CC(C)NC(=O)N1CCC(CN2CCOCC2)CC1 | i | -0.23
CNC(=O)c1ccc(-c2nc(CN3CCN(C(=O)Nc4ccc5c(c4)OCCO5)CC3)c(C)o2)cc1 | i | 0.84
O=C(CCC(=O)N1CCc2cc(S(=O)(=O)N3CCOCC3)ccc21)N1CCCCC1 | i | -0.08
CCOc1cc(-c2cccc(Cl)c2)nc2ccc(C(=O)Nc3ccccc3O)cc12 | i | -0.91
C=CCN[C@H]1CS(=O)(=O)C[C@@H]1S(=O)(=O)c1ccc(OC)cc1 | i | -0.72
Cc1ccc2c(c1)NC(=O)c1cc(S(=O)(=O)N3CCOCC3)c(Cl)cc1O2 | i | -0.34
Cc1ccc(C)c(NC(=O)NC(C(=O)N2CCc3ccccc32)C(C)C)c1 (stereo unspecified) | i | 1.1
CCN(CC)S(=O)(=O)c1ccc(-c2nc(C#N)c(N3CCCC3)o2)cc1 | i | 1.2
Cn1c(=O)n(C)c2cc(CNC(C)(C)CC(C)(C)C)ccc21 | i | -0.1
Cc1ccc(S(=O)(=O)N2CCC3(CC2)NCCN=C3NCc2ccccc2F)cc1C | i | -0.43
C=CCNC(=O)c1cccc(NC(=O)c2nsc3ccccc23)c1 | i | -1.5
CC(C)NC(=O)N1CCCC(c2cccc(C(=O)NC3CCCC3)c2)C1 (stereo unspecified) | i | -1.1
Cc1c(C(=O)N2CCOCC2)sc2nc(-c3ccccc3)cn12 | i | -1.4
Cc1nc2ccccc2c(=O)n1Cc1noc(C2CC(=O)N(C3CCCC3)C2)n1 (stereo unspecified) | i | 0.41
C=CCc1ccc(OCCn2c(CN3CCCC3)nc3ccccc32)c(OC)c1 | i | -1.4
O=C(NCCS(=O)(=O)N1CCN(c2ccccc2)CC1)C1c2ccccc2Oc2ccccc21 | i | -1.3
O=C(Nc1ccc2c(c1)OCCO2)c1cccc(-c2cc(N3CCCC3)ncn2)c1 | i | -1.5
CN(c1cccc(NC(=O)C2CCN(S(=O)(=O)Cc3ccccc3)CC2)c1)S(C)(=O)=O | i | 0.34
O=C(N/N=C/c1ccccc1O)c1ccccc1O | i | 0.88
Cc1ccc(-c2ccc(N3CCOCC3)nn2)cc1S(=O)(=O)N1CCC(C)CC1 | i | 0.84
COc1ccc(-c2cc(C(=O)Nc3ccccc3C)nn2C2CCS(=O)(=O)C2)cc1 (stereo unspecified) | i | 1.4
Nc1c2c(nc3c1CCC3)CCCC2 | i | 0.75
O=C(CN1C(=O)CSc2cccn2-c2ccccc21)N1CCN(c2ccccn2)CC1 | i | -0.63
Cc1[nH]nc2c1C(c1cccc(F)c1F)CC(=O)N2 (stereo unspecified) | i | -0.12
COc1ccc(Cl)cc1NC(=O)c1cc2ccc3ccc(C)[nH]c3c2n1 | i | 1.3
CN(C1CCCCC1)S(=O)(=O)c1ccc2c(c1)CCN2C(=O)NC1CCCCC1 | i | 2
O=C(Nc1cc(-c2ccsc2)no1)c1ccsc1 | i | 1
CCn1c(=O)c(C(=O)O)nc2ccccc21 | i | 0.92
O=C(CCC(=O)NC1CCCCC1)Nc1noc2ccccc12 | i | 0.1
CC(C)CCNC(=O)C1CCN(c2ccc(-c3ccccc3)nn2)CC1 | i | 0.84
Cc1nc(S(=O)(=O)N2CCc3c(c(-c4nnc(-c5ccc(F)cc5)o4)nn3C)C2)cn1C | i | -1.5
CNS(=O)(=O)c1cn(CC(=O)Nc2ccc(F)cc2F)cc1S(=O)(=O)NC | i | -1.2
Cn1c(=O)c2nc(SCCC(=O)O)n(Cc3ccc(F)cc3)c2n(C)c1=O | i | 0.89
COc1ccc2cc3[n+](cc2c1OC)CCc1cc2c(cc1-3)OCO2 | i | 0.15
Cc1nc(-c2cc(S(=O)(=O)N3CCCCC3)c(C)n2C)sc1C | i | 1.2
Cc1ccc(COc2cc(C(=O)NC3CCN(Cc4ccccc4)CC3)c3ccccc3n2)cc1 | i | 0.68
CCSc1nc2ccc(NS(=O)(=O)c3ccc(CC)cc3)cc2s1 | i | 0.93
COc1ccc(NC(=O)N2CCN(c3nc4cc(Br)ccc4n4cccc34)CC2)cc1 | i | 0.36

6 consecutive records out of the list so far, quoted:
SMILES | Anaer choline gr | Anaer choline gr early
O=C(N/N=C/c1ccccc1O)c1ccccc1O | i | 0.88
Cc1ccc(-c2ccc(N3CCOCC3)nn2)cc1S(=O)(=O)N1CCC(C)CC1 | i | 0.84
COc1ccc(-c2cc(C(=O)Nc3ccccc3C)nn2C2CCS(=O)(=O)C2)cc1 (stereo unspecified) | i | 1.4
Nc1c2c(nc3c1CCC3)CCCC2 | i | 0.75
O=C(CN1C(=O)CSc2cccn2-c2ccccc21)N1CCN(c2ccccn2)CC1 | i | -0.63
Cc1[nH]nc2c1C(c1cccc(F)c1F)CC(=O)N2 (stereo unspecified) | i | -0.12

Continuation:
SMILES | Anaer choline gr | Anaer choline gr early
CCn1cc(-c2nc(-c3ccc(OCC(C)C)cc3)no2)c(=O)c2cc(F)c(N3CCOCC3)cc21 | i | -0.75
Cc1nnc(-c2c(C)[nH]c(C)c2S(=O)(=O)N2CCN(C3CCCCC3)CC2)o1 | i | 0.61
COc1c(C)cnc2c1c(=O)n(CC(=O)N1CCCc3ccccc31)c(=O)n2C | i | 0.15
CCOc1ccc(C(=O)Nc2ccccc2-c2ccc3ccccc3n2)cc1 | i | 1
O=C(O)CCCCCC[C@@H]1C(=O)NC(=O)N1CCC(O)C1CCCCC1 (stereo partly specified) | i | -0.16
CCOc1c(C(=O)OC)sc2ccc(NC(=O)Nc3cccc(Cl)c3)cc12 | i | -0.12
CC1CCCN(c2cc(-c3nc(-c4ccccc4)no3)c3ccccc3n2)C1 (stereo unspecified) | i | 1.1
Cc1cccc(C)c1OCC(C)N (stereo unspecified) | i | 0.81&0.93&-0.18&0.3
CC(C)c1cc(C2CCCN2C(=O)c2cccs2)on1 (stereo unspecified) | i | -1.4
CN(Cc1ccccc1)C(=O)c1ccc(-c2cc(NC3CCCCC3)ncn2)cc1 | i | -0.07
O=C(Nc1cccc(F)c1)C1Nc2ccc(Cl)cc2S(=O)(=O)N1 (stereo unspecified) | i | 0.03
COc1ccccc1Oc1cc(-c2cccc(C(=O)Nc3cccc(Br)c3)c2)ncn1 | i | 1.9
O=C(Nc1ccc(-c2cn3ccsc3n2)cc1)c1ccc2c(c1)OCO2 | i | 0.9
c1cc(-c2nn3cnnc3s2)ccn1 | i | -0.45
COc1ccccc1NC(=O)Nc1nc(CC(=O)Nc2cccc(Br)c2)cs1 | i | 1.1
CCCn1c(=O)c2ccccc2n2c(=O)n(CC(=O)c3ccc(OC)cc3)nc12 | i | 0.14
CCOC(=O)n1ccn(C)c1=S | i | 0.14&0.27
CCCCN1CCN(c2ccc(-c3csc(S(=O)(=O)N4CCCCC4)c3)nn2)CC1 | i | -0.73
COCCOC(=O)c1cnn2c(C(F)(F)F)cc(-c3ccc(F)cc3)nc12 | i | 0.71
Cc1nn2c(SCC(=O)Nc3cccc(Cl)c3)nnc2[nH]c1=O | i | 0.19

Full records as entered above.
`CCOC(=O)n1ccn(C)c1=S` across the screens: Anaer choline gr = i; Anaer choline gr early = 0.14&0.27
`CCOc1ccc(C(=O)Nc2ccccc2-c2ccc3ccccc3n2)cc1` across the screens: Anaer choline gr = i; Anaer choline gr early = 1

(listing goes on)
SMILES | Anaer choline gr | Anaer choline gr early
Cc1cccc(-c2cnc(N3CCC(C(=O)N(C)C4CCCCC4)CC3)nc2)c1 | i | 0.92
CCOC(=O)c1ccccc1NC(=O)c1nn(-c2ccccc2)c(=O)cc1OC | i | 0.45
Nc1ncnc2c1nc(Br)n2C1O[C@H]2COP(=O)(O)O[C@@H]2[C@@H]1O (stereo partly specified) | i | 0.5
O=C(Nc1ccc(C(=O)N2CCC(c3nc(-c4ccccc4)no3)CC2)cc1)c1ccccc1 | i | 1.1
CCc1ccc(C2Nc3ccccc3S(=O)(=O)N2)cc1 (stereo unspecified) | i | 0.49
O=c1ccc(N2CCCN(S(=O)(=O)c3ccc4c(c3)CCCC4)CC2)nn1-c1ccc(F)cc1 | i | 1
CC1CCC2(CC1)NCCN=C2NCc1cccc(F)c1 (stereo unspecified) | i | -0.13
Cn1nccc1-c1csc(S(=O)(=O)NC2CC2)c1 | i | -1.3
CCc1ccc(C2C3=C(CC(c4ccc(O)cc4)CC3=O)Nc3onc(C)c32)cc1 (stereo unspecified) | i | 0.53
Cc1cccc(CN2CCN(Cc3c[nH]c4ccccc34)CC2)c1 | i | 0.9
O=C(Nc1ccc(-c2nc3ccccc3s2)cc1)c1ccccn1 | i | -0.3
CCSCC1COC(c2cccn2Cc2ccc(F)cc2)=N1 (stereo unspecified) | i | 0.15
Cn1c(=O)c(N2CCCC(C(=O)NCCCN3CCN(c4ccccc4)CC3)C2)nc2ccccc21 (stereo unspecified) | i | -0.38
Cc1ccccc1-n1c(C)c(C)c2c1ncn1nc(-c3ccc(F)cc3)nc21 | i | 0.64
COc1ccc(-c2nc(CNS(=O)(=O)N(C)C)cs2)cc1 | i | 0.63
Cc1nnc(-c2c(C)[nH]c(C)c2S(=O)(=O)N2CCCC(C)C2)o1 (stereo unspecified) | i | -1.2
CC(C)N1C(=O)c2ccccc2Sc2cc(-c3noc(C4CCC4)n3)ccc21 | i | 0.82
COc1ccc2c(c1)C=C(C(=O)N1CCOCC1)C=CO2 | i | -0.13
Cc1nn(-c2ccccc2)c2sc(-c3noc(-c4cnccn4)n3)cc12 | i | 0.52
CC(=O)N1N=C(c2cccc(NS(C)(=O)=O)c2)CC1c1cn(-c2ccccc2)nc1-c1ccccc1 (stereo unspecified) | i | -0.15

Quoted at random: two compounds from above.
SMILES | Anaer choline gr | Anaer choline gr early
CCCCN1CCN(c2ccc(-c3csc(S(=O)(=O)N4CCCCC4)c3)nn2)CC1 | i | -0.73
O=C(CCC(=O)N1CCc2cc(S(=O)(=O)N3CCOCC3)ccc21)N1CCCCC1 | i | -0.08

New compounds follow.
SMILES | Anaer choline gr | Anaer choline gr early
Cc1noc(C)c1CCc1nc(-c2ccc(Cl)cc2)no1 | i | 0.16
CCCNC(=O)C1CCCN(c2nc(C)nc3onc(C)c23)C1 (stereo unspecified) | i | -0.96
Cc1ccc(C)c(NC(=O)CCS(=O)(=O)c2ccc3c(c2)CC(=O)N3C)c1 | i | 0.37
O=C(NCC1CCN(Cc2ccccc2F)CC1)c1cc2ccccn2c1 | i | -0.25
CCn1c(=O)c(=O)n(CC(=O)NCCOC)c2cccnc21 | i | -0.83
O=c1oc2cc(O)c(Cl)cc2c2ccccc12 | i | 0.73
Cc1nc(-c2cc(S(=O)(=O)N3CCC(Cc4ccccc4)CC3)c(C)s2)sc1C | i | 1.1
O=C1CCCc2cc(S(=O)(=O)N3CCCC(C(=O)NCc4ccc(Cl)cc4)C3)ccc2N1 (stereo unspecified) | i | 0.79
Cc1ccc(C)c(-c2nc(-c3ccc4c(c3)oc(=O)n4C)no2)c1 | i | 0.63
c1ccc(C2C3=C(CCCC3)Nc3ncnn32)cc1 (stereo unspecified) | i | 0.27
COc1ccc(NC(=O)Nc2cc3[nH]c(=O)[nH]c3cc2C)cc1OC | i | 1.2
Cc1ccc(N(CC(=O)N2c3ccccc3CC2C)S(=O)(=O)c2c(C)nn(C)c2C)cc1 (stereo unspecified) | i | -0.37
COc1cccc(C2=NS(=O)(=O)N(C)C(C(=O)Nc3ccn(Cc4ccc(C)cc4)n3)=C2)c1 | i | 0.44
O=C(C1CCCCC1)N1CCC(c2ccncc2)CC1 | i | -0.29
Cc1ccc2c(Cl)c(C(=O)Nc3nc4c(s3)CCCC4)sc2c1 | i | 0.68
COC(=O)c1cc(S(=O)(=O)N2CCCC2C(=O)Nc2ccc(F)cc2F)cn1C (stereo unspecified) | i | -0.81
Cc1cc(C)n2nc(N(Cc3cccc(F)c3)S(=O)(=O)c3ccccc3)nc2n1 | i | -0.01
CCC(C)NC(=O)c1cc(NS(=O)(=O)c2ccc(Cl)cc2)ccc1N1CCNCC1 (stereo unspecified) | i | -1.4
Cc1ccccc1OCC(=O)Nc1ccc(OCc2cc(=O)n3[nH]cnc3n2)cc1 | i | -0.06
O=S(=O)(c1ccc2c(c1)OCCO2)N1CCc2cc3ccccc3nc21 | i | -0.01
COC(=O)c1ccccc1NC(=O)c1ccc(-c2nc(CSc3ccc(C)cc3)c(C)o2)cc1 | i | 1.4
Cc1cccc(NC(=O)C2CCN(c3nc(-c4ccc(C(C)C)cc4)no3)CC2)n1 | i | 0.27
Cc1ccc(C(=O)N2CCCC2c2cc(C)on2)cc1 (stereo unspecified) | i | -0.53
COCc1cnc2c(c1SCC(N)=O)c(=O)n(C)c(=O)n2C | i | -0.34
Cc1ccccc1CSc1ccc(-n2nc3c(c2C)CCC3)nn1 | i | 0.77
CC1Oc2cc(S(=O)(=O)N3CCN(C(=O)c4cc5ccccc5[nH]4)CC3)c(Cl)cc2NC1=O (stereo unspecified) | i | 0.47
COc1ccc(Nc2cc(C)nc(N3CCCCC3)n2)cc1 | i | 0.19
CCCc1nc2c3ccccc3n(CC(=O)c3ccc4c(c3)OCO4)c(=O)n2n1 | i | 0.08
Cc1ccc(N2CC(C(=O)Nc3ccccc3-c3nc(C)no3)CC2=O)cc1 (stereo unspecified) | i | -0.16
O=C(NC1CCCCC1)C1CCN(c2nc3ccccc3nc2C(F)(F)F)CC1 | i | 2.5
O=C(CSc1ncnc2nc(N3CCc4ccccc4C3)sc12)N1CCc2ccccc2C1 | i | -2
CCCCCC(=O)/C=C/[C@H]1[C@H](O)CC(=O)[C@@H]1CCCCCCC(=O)O | i | 0.43
